# Sfp inh: Sfp phosphopantetheinyl transferase inhibition | Biochemical Sfp PPTase activity, qHTS | Potency, µM, for the others: max response, negative = inhibition, most hits filed as inhibitors | 310,000 compounds, 3.5% hits | AID 1490; active means well fitted inhibition curve with a large enough effect; inconclusive means small, poorly fitted or top-dose-only effect, or another doubt; inactive means no such curve, though single readings can be large or run the other way;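 further: the enzyme is Sfp with the accession as filed and its product quenches rhodamine fluorescence; potency means the concentration at half of the fitted maximal effect; 0% = enzyme reaction without inhibitor and -100% = no enzyme wells; top concentration of the series not given in the record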
#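 Buffer: 50 mM Hepes-Na pH 7.6, 10 mM MgCl2, 0.01% Nonidet P-40, 0.01% BSA. Enzyme 15 nM, pre-exposed to compound 15 min; substrates then added and fluorescence change tracked over 30 min.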
# Menin-MLL FL inh: inhibitors of human menin-MLL interaction, wild-type MLL peptide; 290,000 tested, under 10 active; Fluorescence polarization, fluorescein-MLL peptide displacement from menin; FP activity change, % at 61.4 µM; inconclusive = falling polarisation curve, or a change in total fluorescence; inactive = total fluorescence flat and polarisation flat or rising; no compound was filed as active; the % refers to the polarisation; negative = inhibition;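 further: % of control where 0% means no effect; inhibitors lower the polarisation; unlabelled MLL peptide was the positive control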
# gsp ag: activates gsp, the McCune-Albright syndrome mutation; gsp mutant cells, cAMP HTRF, 30 min; control for the full effect not named in the record; Potency, µM (titrated, usually from 76.9 µM), for inactives: at the top dose activation (cAMP increase), usual class: activators; 340,000 compounds, 0.13% hits; AID 624287; active = well fitted activation curve with a large enough effect; inconclusive = small, poorly fitted or top-dose-only effect, or another doubt; inactive = no such curve, though single readings can be large or run the other way; cell line not stated here;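 further: phosphodiesterase inhibitor Ro 20-1724 added with compounds to block cAMP breakdown; potency means the concentration at half of the fitted maximal effect; nearly all actives have a fitted effect of over 60% in size; about a fifth of the inactives were tested at one dose only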
#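 Cells in DMEM/10% FBS with G418 were pretreated with compounds in DMSO plus […] (300 uM stock) for 30 min at 37C. cAMP was measured by HTRF (cAMP-d2 plus anti-cAMP antibody-K) after 30 min at room temperature.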
# TRPV1 PAM: human TRPV1 potentiation. Q8NER1. TRPV1-expressing cells, Fluo-8 calcium influx, capsaicin EC20 potentiation; host cell line not named in the record; control for the full effect not named in the record. potentiation, % at 8.33 µM. 320,000 compounds, 0.02% hits; active means potentiation above 80%; inconclusive means 30% to 80%; inactive means below 30%; further: 0% is about no effect
# Target sequence (Q8NER1 whole entry, looked up): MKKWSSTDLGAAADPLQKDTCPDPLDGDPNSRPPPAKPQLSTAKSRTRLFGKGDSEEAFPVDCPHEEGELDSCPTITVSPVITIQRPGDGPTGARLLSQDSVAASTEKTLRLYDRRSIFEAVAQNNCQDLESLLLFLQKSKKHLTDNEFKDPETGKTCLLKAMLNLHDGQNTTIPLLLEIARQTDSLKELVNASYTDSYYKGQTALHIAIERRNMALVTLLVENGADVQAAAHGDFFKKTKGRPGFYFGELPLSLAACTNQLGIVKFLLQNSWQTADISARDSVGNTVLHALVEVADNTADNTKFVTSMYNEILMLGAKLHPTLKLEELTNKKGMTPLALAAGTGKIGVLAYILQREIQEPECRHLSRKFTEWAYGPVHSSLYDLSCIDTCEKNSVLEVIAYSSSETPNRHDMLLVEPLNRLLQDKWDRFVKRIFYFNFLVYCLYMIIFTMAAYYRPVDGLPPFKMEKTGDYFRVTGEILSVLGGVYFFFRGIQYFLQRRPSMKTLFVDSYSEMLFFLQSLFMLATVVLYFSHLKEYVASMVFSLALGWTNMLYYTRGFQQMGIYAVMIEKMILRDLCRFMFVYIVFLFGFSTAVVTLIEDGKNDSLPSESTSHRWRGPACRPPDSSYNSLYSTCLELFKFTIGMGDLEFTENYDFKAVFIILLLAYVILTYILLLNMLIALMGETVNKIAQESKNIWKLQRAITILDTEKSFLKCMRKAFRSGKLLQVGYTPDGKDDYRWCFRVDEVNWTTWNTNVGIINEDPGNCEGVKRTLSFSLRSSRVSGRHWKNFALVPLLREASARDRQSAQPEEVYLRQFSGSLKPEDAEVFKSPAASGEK
#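 Fluo-8 calcium influx in TRPV1-expressing cells, kinetic read (ex 480/em 520 nm). Compound added and read 3 min for agonist activity, followed by capsaicin at EC20 final and 2 min further read for enhancement.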
# ClpP mod: qHTS Assay for Activators of ClpP; purified B. subtilis ClpP, FRET peptide cleavage, 20 min; Potency, µM (top dose mostly 57.5 µM), for inactives: at the highest dose activity change, negative = active; 340,000 compounds, 1.9% hits; AID 651965, 2013; active = well fitted falling curve with a large enough effect; inconclusive = small, poorly fitted or top-dose-only effect; inactive = no such curve, though single readings can be large or run the other way; further: potency means the concentration at half of the fitted maximal effect; the source files actives as falling curves though it sought activators and does not explain the sign; nearly all actives have a fitted effect of over 65% in size; many hits overshoot -100%
# Target sequence (P80244 whole entry, looked up): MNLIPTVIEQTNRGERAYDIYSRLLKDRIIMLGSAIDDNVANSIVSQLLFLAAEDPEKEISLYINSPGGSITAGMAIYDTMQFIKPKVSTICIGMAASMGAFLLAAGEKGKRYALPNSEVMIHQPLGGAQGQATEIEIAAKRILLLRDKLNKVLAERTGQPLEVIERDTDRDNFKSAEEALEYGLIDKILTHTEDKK
#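 FRET quenching reversal measured ClpP activation: 10 microg/mL B. subtilis ClpP at pH 8 with the FRET-FV decapeptide, read at 430 nm after 320 nm excitation. The 20-min minus 0-min signal was scaled between DMSO/no-enzyme wells and ADEP (5.8 microM final).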
# CtBP-E1A blk: CtBP/E1A binding inhibition; AlphaScreen GST-E1A/His-CtBP binding, 1536-well; hits give low values; control for the full effect not named in the record; activity change, % (no concentration beside the values); 340,000 compounds, 0.49% hits; in the data active means activity change below about -65%; inconclusive means about -30% to -65%; inactive means above about -30%; further: on the % scale 0 is the no-effect control and ±100 the full control effect
#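 In 5 uL wells, 23 nL compound meets equimolar GST-E1A and His-CtBP (5X stock 125 nM each) for 2 h, 37 °C. Beads (5X, 50 ug/mL) then 1 h, 37 °C, dark.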
# gsp antagonist: antagonizes gsp, the McCune-Albright syndrome mutation. 340,000 compounds, 0.4% hits. Potency, µM (titrated, usually from 76.9 µM), inactives show at the highest dose activity change, negative = inhibition, actives largely listed as inhibitors. gsp-mutant cells, cAMP HTRF, 30 min; control for the full effect not named in the record; active = falling curve of any shape with a large fitted effect; inconclusive = falling curve, mostly with a smaller effect; inactive = flat or rising curve; cell line not stated here;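 further: intracellular cAMP measured with PDE inhibitor Ro 20-1724 present during compound exposure; potency means the concentration at half of the fitted maximal effect; on the % scale 0 is the no-effect control and ±100 the full control effect; nearly all actives have a fitted effect of over 65% in size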
#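 HTRF cAMP measurement after 30 min RT detection following 30 min, 37C compound treatment alongside […] (added as 300 uM solution) in G418-selected cells seeded at 2000/well and grown 16–24 h.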
# Active calls of the source: *; u = inconclusive; x = not tested or not shown; [ ] = dose if it differs, or a comment. Outcome played no part in choosing rows. Share with any hit: about 5.3%.
compound	Sfp inh	Menin-MLL FL inh	gsp ag	TRPV1 PAM	ClpP mod	CtBP-E1A blk	gsp antagonist
N#Cc1nc(COc2ccccc2)oc1N1CCCCC1	-7.6%	u	-0.5%	x	-1.7%	u	-4.0%
COc1ccc(NC(=O)COc2ccccc2)cc1Cl	18.7%	4.7	5.2%[15.4 µM]	-10.7	-0.4%	0.4	1.4%
COc1cccc(/C(O)=C/c2nc3ccc(C(=O)NCCc4ccc(Cl)cc4)cc3[nH]c2=O)c1	3.7%	u	20.6%	-5.8	-2.3%	4.2	4.0%
CCN(CC)S(=O)(=O)c1ccc(NC(=O)CSc2nc3nc(C)cc(C)c3c(=O)[nH]2)cc1	x	x	-9.4%	x	-24.9%	-2.2	0.4%
CC(NC(=O)C(NC(=O)C(Cc1c[nH]c2ccccc12)NC(=O)OC(C)(C)C)C(C)C)C(N)=O (stereo not given)	10.7%	-1.1	6.4%[15.4 µM]	9.9	x	4.1	5.5%
COc1ccccc1C(=O)NCC(=O)N=Nc1c(O)n(C(C)C)c2ccccc12	-0.3%	-5.9	-24.6%	12.0	0.1%	x	-5.6%
O=C(Nc1nccs1)c1ccc(S(=O)(=O)N2CCOCC2)cc1	-0.4%	-4.8	24.7%	-9.7	x	-0.9	-10.4%
COc1cccc(CNC(=O)c2cccc(Br)c2)c1	-7.1%	11.7	-36.7%[inhibitor]	-17.0	0.8%	1.0	3.4%
CCn1c(=S)[nH]c2cc(S(=O)(=O)N3CCOCC3)ccc21	x	x	19.5%[15.4 µM]	x	-0.6%	4.4	12.1%
CCOC(=O)Nc1ccc(C(N)=O)cc1	15.1%	0.4	-31.9%	-3.6	-1.2%	0.0	3.1%
O=C(CN1C(=O)CC(c2ccccc2)S(=O)(=O)c2ccccc21)N1CCCCC1 (stereo not given)	9.6%	-4.9	-22.6%[15.4 µM]	-30.4	x	-3.0	x
Cc1ccc(Oc2ccc(S(=O)(=O)NCC(C)(C)N3CCOCC3)cc2)cc1	-3.6%	3.5	-3.7%[15.4 µM]	-5.4	0.9%	-3.3	-2.3%
COc1ccc(OC)c(S(=O)(=O)NC2CC2)c1	18.9%	2.9	19.4%	6.9	0.9%	7.7	9.2%
O=[N+]([O-])c1cc(S(=O)(=O)Nc2ccccc2)ccc1N1CCN(c2ccccc2)CC1	18.8%	u	-4.9%[15.4 µM]	8.6	-27.2%	u	-7.4%
N#CC(=Cc1cccs1)c1nc(-c2ccc(Cl)cc2)cs1	x	x	-55.0%[inhibitor]	x	0.7%	0.6	x
Nc1cc(=O)[nH]c(SCC(=O)NCCC2=CCCCC2)n1	x	x	u	x	1.2%	0.3	8.1%
OCCNc1nc(NCCC2=CCCCC2)nc(N2CCOCC2)n1	0.9%	1.6	-2.2%	-7.6	-1.9%	-0.2	-0.3%
O=S(=O)(c1ccc(Cl)cc1)N1CCN(c2nc(C(F)(F)F)nc3ccccc23)CC1	x	x	-15.4%	x	-0.8%	-8.1	x
O=C(O)c1ccccc1Nc1ccccc1C(=O)O	7.5%	1.3	u	x	-4.7%	-16.8	-1.3%
O=C(O)c1ccc(-n2nnc3ccccc32)c([N+](=O)[O-])c1	1.7%	0.1	35.3%[15.4 µM]	-0.7	x	6.9	2.7%
CC1=C(C(=O)OCC2CCCO2)C(c2ccncc2)C2=C(CC(C)(C)CC2=O)N1 (stereo not given)	9.8%	3.6	0.4%	3.9	u	1.6	-4.2%
Cn1c(=O)n(CCOc2ccc(Cl)cc2Cl)c2ccccc21	8.8%	8.1	11.3%	12.8	-1.9%	-0.6	-1.6%
O=C(Nc1ccc(S(=O)(=O)NCC2CCCO2)cc1)c1cnccn1 (stereo not given)	7.7%	0.7	18.0%	-7.8	x	-0.4	-15.5%
Cc1ccc(Oc2ccc(/C=N/O)cn2)cc1	16.3%	-0.1	-6.2%	10.1	15.8µM*	5.7	-2.8%
O=C(Cc1cccs1)NCc1ccc(Cl)cc1	19.2%	1.9	-0.7%	-27.2	x	5.4	10.1%
Cc1noc(C)c1CSCC(=O)Nc1cc(S(C)(=O)=O)ccc1Cl	x	x	-24.8%	7.5	0.9%	-4.1	-5.0%
CNC(=O)Cn1nc(-c2ccc(C)cc2)c2ccccc2c1=O	5.0%	0.6	15.0%	-3.5	x	1.7	5.9%
Cc1ccc(C(=O)CCC(=O)OCC(=O)NNC(=O)c2ccccc2Cl)cc1	x	x	22.3%	1.1	0.7%	0.0	11.6%
COc1ccc(N2C(=O)C3CCCN3C2c2cc(OC)c(OC)c(OC)c2)cc1 (stereo not given)	9.1%	0.1	-6.4%	-1.2	-4.5%	0.0	3.0%
COc1ccc2c(c1)c(CCNNC(=O)C(C)(C)C)c(C)n2C(=O)c1ccc(Cl)cc1	x	x	-14.2%	x	1.5%	-11.4	-27.1%
Cc1ccnc(NC(=O)c2ccc3[nH]c(=O)c(=O)[nH]c3c2)c1	10.4%	-4.3	6.5%	11.5	-18.5%	x	-15.2%
O=C(COC(=O)c1cccc([N+](=O)[O-])c1)c1ccc(OCc2ccccc2)cc1	6.7%	-3.9	3.0%	-3.0	-1.4%	-2.0	17.9%
COc1ccc(-c2ccc(NCCN3CCOCC3)nn2)cc1OC	-1.8%	-1.1	24.0%	4.1	-2.2%	-6.2	10.9%
CC(=O)NCCNC(=O)c1cc(-c2cccc3ccccc23)nc2ccccc12	x	x	-20.0%	x	-5.1%	-0.4	-3.1%
COCCSc1ccccc1C(=O)Nc1cc([N+](=O)[O-])ccc1OC	17.2%	-0.7	-24.3%	9.3	-2.0%	x	-7.2%
COc1cccc(NC(=O)CCN2C(=O)c3ccc([N+](=O)[O-])cc3C2=O)c1	-3.0%	-1.1	2.0%[15.4 µM]	-1.5	x	-6.8	4.8%
CCOc1ccc(Oc2ccc(NC(=O)[C@@H](NC(N)=O)[C@@H](C)CC)cc2)cc1	-11.7%	2.5	44.9%	1.4	0.1%	2.8	-4.4%
CC(C)(C)c1ccc(-c2nnc(SCCC#N)n2C2CCCC2)cc1	-2.8%	6.4	3.8%	-9.7	-0.9%	-1.8	-39.3%
O=C(c1cccc(S(=O)(=O)N2CCOCC2)c1)N1CCOCC1	19.0%	1.0	-10.6%	-3.6	0.0%	6.5	9.7%
CCC(C)[C@H]1CN=C(N)N1CC1CCCCC1 (stereo not given in full)	x	x	x	x	-2.9%	-0.7	8.1%
C#CCN1C(=O)S/C(=C/C=C/c2ccc(N(C)C)cc2)C1=O	-11.5%	u	2.1%	-3.8	1.4%	-29.7	-8.8%
O=C(Nc1cccc(Cl)c1)c1cncn1-c1ccc(F)cc1	7.7%	-12.8	-25.9%[15.4 µM]	u	x	0.0	4.0%
COC(=O)c1cc2c(C)cc3ccc(C)cn3c-2c1C(=O)OC	-14.2%	u	111.1%	-12.6	6.1%	u	6.8%
CCC1CCc2sc(C(=O)N3CCN(c4ccccn4)CC3)cc2C1 (stereo not given)	x	x	-1.1%	x	2.2%	-0.4	-12.2%
CCCCn1c(N)c(N(Cc2ccccc2OC)C(=O)c2ccc([N+](=O)[O-])s2)c(=O)[nH]c1=O	x	x	8.7%[15.4 µM]	10.7	x	-7.8	-5.7%
Cc1ccccc1NC(=O)C1CCCN(S(=O)(=O)c2ccc3c(c2)C(C)(C)C(=O)N3C)C1 (stereo not given)	6.0%	-0.8	u	13.3	-1.2%	1.9	-1.6%
CC(C(=O)NCCS(=O)(=O)c1ccc(Cl)cc1)S(=O)(=O)c1ccc(Cl)cc1 (stereo not given)	20.4%	-5.2	-17.2%[15.4 µM]	-8.6	x	2.7	x
O=C(C[n+]1ccsc1)c1ccccc1	-16.1%	2.2	-19.4%	-3.5	0.3%	7.5	9.7%
Cc1cc(NS(=O)(=O)c2ccc(C3CCCCC3)cc2)no1	-4.1%	2.4	-19.1%	-4.7	-1.3%	5.8	-8.3%
O=[N+]([O-])c1ccc(Cl)c(/C=N/N2CCN(Cc3ccc(Cl)cc3)CC2)c1	-2.8%	2.7	0.0%	0.7	-0.8%	2.6	-2.5%

# (continued)
compound	Sfp inh	Menin-MLL FL inh	gsp ag	TRPV1 PAM	ClpP mod	CtBP-E1A blk	gsp antagonist
CCOc1ccccc1NC(=O)C1CCN(S(C)(=O)=O)CC1	3.2%	-3.1	-22.4%	-1.2	-0.6%	5.1	2.8%
CC(C)CCOc1ccc(C(=O)NCC(c2cccs2)N2CCOCC2)cc1 (stereo not given)	x	x	-23.6%	-1.6	-1.1%	-0.4	-12.5%
Cn1c(Cc2cccs2)nnc1SCC(=O)N1CCc2ccccc21	6.4%	-0.8	-10.2%	4.8	0.3%	-0.3	-3.0%
Cc1nn(Cc2cccc3ccccc23)c(C)c1NC(=O)c1cccnc1	2.7%	-0.7	-5.1%	-11.5	0.5%	-1.9	-2.6%
CCOc1ccc(C(C)NC(=O)CCC(=O)O)cc1 (stereo not given)	14.3%	1.4	-10.3%	-3.4	28.2µM*	2.8	11.3%
COC(=O)c1cc(Br)cn1S(=O)(=O)c1ccccc1	12.5%	5.1	0.7%	u	x	4.8	0.6%
CC(=O)c1ccc(-c2nc3c4ccccc4ccn3c2C(C)=O)o1	7.7%	-2.1	u	3.3	-26.6%	3.9	-0.8%
CCCOc1ccc(C(=O)NCC(c2cccs2)N(C)C)cc1 (stereo not given)	7.6%	2.8	-1.6%	7.1	-4.2%	x	7.8%
C[n+]1nc(Nc2cccc(F)c2)sc1-c1ccc(C(=O)O)cc1	-5.3%	-4.1	x	-2.2	x	x	x
COc1cccc2cc(C(=O)N3CCN(c4ccccc4F)CC3)c(=O)oc12	-11.5%	-1.2	9.1%	-18.3	-7.6%	-5.1	8.4%
O=C(c1cccs1)c1sccc1Cc1ccccc1	x	x	-15.7%	x	x	39.2	-8.0%
O=C1NC(c2cccc(Cl)c2)Nc2ccccc21 (stereo not given)	-18.7%	4.4	-5.3%[15.4 µM]	14.1	x	-0.4	18.2%

# Source: PubChem
